FPR = small-molecule ligands of human FPR – U937-FPR cells, fMLFK-FITC, flow cytometry, primary screen (AID 362). inhibition, %. U937-FPR cells, fMLFK-FITC displacement, flow cytometry; stronger effect = higher value; test concentration not given here; most inactive calls were filed without a number and no value below 0 was filed. 4,300 tested, 1% active;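 active = inhibition of labelled peptide binding to the formyl peptide receptor of at least 65%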;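 also: plate controls were buffer control wells for no effect and unlabeled fMLFF blocking peptide for full effect; higher means less cell fluorescence so more probe displaced; part of the set was picked by virtual screening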
* = called active by the depositor; i = inactive. This is a subset; count on the stated rates, not on these rows.

| molecule | FPR |
| --- | --- |
| CCC(C)NC(=O)CSc1nc2ccsc2c(=O)n1CCCCCC(=O)NCc1ccc(C)cc1 (stereo not given) | i |
| CC1(C)CC(=O)c2cnc3nc4ccccc4n3c2C1 | i |
| CC(C)Cn1cc(C(=O)NCCc2ccc(Cl)cc2)c2c3ccccc3n(C)c2c1=O | 7 |
| CCOC(=O)C(CC(C)C)NS(=O)(=O)c1ccc([N+](=O)[O-])cc1 (stereo not given) | i |
| COc1ccc(C2CC(=O)C3=C(C2)NC(C)=C(C(=O)OC2CCCCC2)C3c2cccc([N+](=O)[O-])c2)cc1OC (stereo not given) | i |
| CC1CCN(C(=O)c2cc(N3C(=O)C4C5CCC(C5)C4C3=O)ccc2Cl)CC1 (stereo not given) | i |
| CCCCCCCOC(=O)C1=C(C)NC(=O)NC1c1ccc(O)cc1 (stereo not given) | 7 |
| CC(=O)Nc1ccc(S(=O)(=O)NCC2CCC(C(=O)NCc3cccs3)CC2)cc1 (stereo not given) | i |
| CC1CC(C)CN(C(=O)c2ccc(S(=O)(=O)c3cccc(Cl)c3)c([N+](=O)[O-])c2)C1 (stereo not given) | 1 |
| CCCCOC(=O)C1=C(C)NC(=O)NC1c1ccc(O)c(OC)c1 (stereo not given) | i |
| O=C1CCC(C(=O)N(c2ccccc2)C2(C(=O)NC3CCCC3)CCCCC2)N1 (stereo not given) | i |
| CC(=O)Nc1ccc(S(=O)(=O)Nc2ccccc2C(C)C)cc1 | i |
| COc1cc(Br)c(C2C(C(=O)OCC(C)C)=C(C)NC3=C2C(=O)CC(c2ccccc2)C3)cc1OC (stereo not given) | i |
| COCCOC(=O)C1=C(N)OC2=C(C(=O)CC(C)(C)C2)C1c1ccccc1[N+](=O)[O-] (stereo not given) | 8 |
| COc1ccc(C2NC(=O)NC(C)=C2C(=O)OC2CCCC(C)C2)cc1Br (stereo not given) | i |
| Cc1ccc(S(=O)(=O)NCC2CCC(C(=O)N3CCN(C)CC3)CC2)cc1 (stereo not given) | i |
| O=C(NCCCN1CCOCC1)C1CCC(CNS(=O)(=O)c2ccc(Cl)cc2)CC1 (stereo not given) | i |
| Cc1cc(C)c(S(=O)(=O)NCC2CCC(C(=O)N3CCOCC3)CC2)c(C)c1 (stereo not given) | i |
| CC(C)CCn1c(SCC(=O)NCCc2ccccc2)nc2ccsc2c1=O | i |
| O=C(O)C12CC3CC(C1)CC(n1cnc(Cl)n1)(C3)C2 | 2 |
| O=C(O)c1cc(N2C(=O)C3C4C=CC(C4)C3C2=O)cc(N2C(=O)C3C4C=CC(C4)C3C2=O)c1 (stereo not given) | 18 |
| CCOC(=O)c1cc2c(=O)n3ccccc3nc2n(CC(C)C)c1=NC(=O)c1ccccc1C | i |
| CCOC(=O)Oc1ccc2c(=O)c(Oc3ccc(OC)cc3)c(C(F)(F)F)oc2c1 | 11 |
| COc1ccc(C2(CNC(=O)C3COc4ccccc4O3)CCCC2)cc1OC (stereo not given) | i |
| O=[N+]([O-])c1cc2c(cc1CC1CC1)OCCO2 | i |

Next part
| molecule | FPR |
| --- | --- |
| CCOC(=O)C1=C(C)NC2=C(C(=O)C(C(=O)OC)C(C)C2)C1c1ccccc1F (stereo not given) | 4 |
| Cc1ccc(C(=O)Nc2cccc([N+](=O)[O-])c2)cc1S(=O)(=O)NC1CCCCC1 | i |
| COc1cc2c(C(=O)N(C)c3ccccc3C)cn(CC(C)C)c(=O)c2cc1OC | i |
| CCCCn1c(=NC(=O)c2c(OCC)ccc3ccccc23)c(C(=O)OCC)cc2c(=O)n3ccccc3nc21 | i |
| CC(=O)c1c(C)[nH]c(C(=O)N(CC(C)C)CC(C)C)c1C | i |
| N#CC1=C(SCC(=O)Nc2ccccc2)N=C(N)C(c2nc(-c3ccccc3)cs2)C12CCCCC2 (stereo not given) | i |
| Cc1ccc(-n2c(=O)c3sccc3n(Cc3cc(=O)n4cc(Cl)ccc4n3)c2=O)cc1 | i |
| CCOC(=O)c1c(NC(=O)C2CCCCC2C(=O)O)sc2c1CCC(C(C)(C)CC)C2 (stereo not given) | 21 |
| CCN(C(=O)c1cn(CC(C)C)c(=O)c2cc(OC)c(OC)cc12)c1ccccc1F | i |
| CC1(C)CC(=O)C2=C(C1)OC(N)=C(C#N)C2c1ccccc1 (stereo not given) | 4 |
| CCCOC(=O)c1c(NC(=O)C2C3C=CC(C3)C2C(=O)O)sc2c1CCCC2 (stereo not given) | i |
| N=c1c(C(=O)NCc2ccccc2)cc2c(=O)n3ccccc3nc2n1C1CCCCC1 | i |
| CCCCCCCOC(=O)C1=C(C)NC(=O)NC1c1ccc(OCc2ccccc2)c(OC)c1 (stereo not given) | i |
| CCC(C)(C(=O)NC1CCCC1)N(C(=O)CNC(=O)c1ccccc1)c1ccccc1 (stereo not given) | 19 |
| CC1CCN(C(=O)C2CCN(S(=O)(=O)N3CCC(C)CC3)CC2)CC1 | i |
| CCCOc1cc(OCCC)c2c3c(c(=O)oc2c1)CCCC3 | 7 |
| CCCCn1c(SCC(=O)OCC)nc2c(sc(=S)n2-c2ccccc2OC)c1=O | i |
| CCCOC(=O)C(C)Oc1ccc2c(=O)c(Oc3cc(C)cc(C)c3)c(C(F)(F)F)oc2c1 (stereo not given) | i |
| COC(=O)c1c(-c2ccccc2)csc1NC(=O)C1CCCCC1C(=O)O (stereo not given) | i |
| CN1CCN(c2c3c(c(C#N)c4nc5ccccc5n24)CCCC3)CC1 | 3 |
| O=C(c1ccc(=O)[nH]c1)N(CC1CCCO1)C1(C(=O)NC2CCCC2)CCCCC1 (stereo not given) | i |
| CCOC(=O)CON1C(=O)C(=O)N(OCC(=O)OCC)[C@H]2CCCC[C@H]21 | i |
| Cc1ccc(C(=O)Nc2ccccc2)cc1S(=O)(=O)NC1CCCCC1 | i |
| CC1(C)CC(=O)c2c(n(S(=O)(=O)c3ccccc3)c3ccc(NS(=O)(=O)c4ccccc4)cc23)C1 | i |
| CCOC(=O)C1C(=O)C=C(c2ccc(OC)c(OC)c2)CC1c1cccc([N+](=O)[O-])c1 (stereo not given) | i |

A stretch of the results above:
| molecule | FPR |
| --- | --- |
| CCOC(=O)C1=C(C)NC2=C(C(=O)C(C(=O)OC)C(C)C2)C1c1ccccc1F (stereo not given) | 4 |
| Cc1ccc(C(=O)Nc2cccc([N+](=O)[O-])c2)cc1S(=O)(=O)NC1CCCCC1 | i |
| COc1cc2c(C(=O)N(C)c3ccccc3C)cn(CC(C)C)c(=O)c2cc1OC | i |
| CCCCn1c(=NC(=O)c2c(OCC)ccc3ccccc23)c(C(=O)OCC)cc2c(=O)n3ccccc3nc21 | i |
| CC(=O)c1c(C)[nH]c(C(=O)N(CC(C)C)CC(C)C)c1C | i |
| N#CC1=C(SCC(=O)Nc2ccccc2)N=C(N)C(c2nc(-c3ccccc3)cs2)C12CCCCC2 (stereo not given) | i |
| Cc1ccc(-n2c(=O)c3sccc3n(Cc3cc(=O)n4cc(Cl)ccc4n3)c2=O)cc1 | i |
| CCOC(=O)c1c(NC(=O)C2CCCCC2C(=O)O)sc2c1CCC(C(C)(C)CC)C2 (stereo not given) | 21 |
| CCN(C(=O)c1cn(CC(C)C)c(=O)c2cc(OC)c(OC)cc12)c1ccccc1F | i |
| CC1(C)CC(=O)C2=C(C1)OC(N)=C(C#N)C2c1ccccc1 (stereo not given) | 4 |
| CCCOC(=O)c1c(NC(=O)C2C3C=CC(C3)C2C(=O)O)sc2c1CCCC2 (stereo not given) | i |
| N=c1c(C(=O)NCc2ccccc2)cc2c(=O)n3ccccc3nc2n1C1CCCCC1 | i |
| CCCCCCCOC(=O)C1=C(C)NC(=O)NC1c1ccc(OCc2ccccc2)c(OC)c1 (stereo not given) | i |
| CCC(C)(C(=O)NC1CCCC1)N(C(=O)CNC(=O)c1ccccc1)c1ccccc1 (stereo not given) | 19 |
| CC1CCN(C(=O)C2CCN(S(=O)(=O)N3CCC(C)CC3)CC2)CC1 | i |

Continued.
| molecule | FPR |
| --- | --- |
| Cc1sc2ncnc(N3CCCCCC3)c2c1S(=O)(=O)N1CCOCC1 | i |
| Cc1ccc2nc3c(cc(C(=O)NCc4ccco4)c(=N)n3C3CCCC3)c(=O)n2c1 | i |
| CCC(C)OC(=O)C1=C(C)NC2=C(C(=O)C(C(=O)OC)C(C)C2)C1c1ccc(OC)c(O)c1 (stereo not given) | 10 |
| CCCCn1c(=NC(=O)c2ccncc2)c(C(=O)OCC)cc2c(=O)n3ccccc3nc21 | i |
| COc1ccc(CCNC(=O)CSc2nc3ccsc3c(=O)n2CCC(C)C)cc1OC | i |
| COc1ccc(N2CCN(Cc3nc4c(c(=O)n(C)c(=O)n4C)n3CCC(C)C)CC2)cc1 | i |
| CC1(C)CC(=O)C2=C(C1)N(c1ncn[nH]1)C(N)=C(C#N)C2c1ccc2c(c1)OCO2 (stereo not given) | i |
| COc1ccc2nc(NC(=O)C(NS(=O)(=O)c3ccc4c(c3)CCN4C(C)=O)C(C)C)sc2c1 (stereo not given) | i |
| COc1ccc(C2CC(=O)C3=C(C2)NC(C)=C(C(=O)OCC(C)C)C3c2cc(OC)c(OC)c(OC)c2)cc1 (stereo not given) | 27 |
| CC(=O)N1CCCc2cc(S(=O)(=O)NC(C(=O)NCc3ccc(Cl)cc3)C(C)C)ccc21 (stereo not given) | i |
| CCCOC(=O)C1=C(C)NC2=C(C(=O)C(C(=O)OC)C(C)C2)C1c1ccc(OCCC)cc1 (stereo not given) | 14 |
| CC(=O)N1CCc2cc(S(=O)(=O)N(CC(C)C)CC(C)C)ccc21 | 8 |
| Cc1ccccc1C1NC(=O)NC2=C1C(=O)CC(C)(C)C2 (stereo not given) | 28 |
| CCOC(=O)CSc1nc(-c2ccccc2)nc2c1CCCC2 | i |
| CCCCCCCOC(=O)C1=C(C)NC(=O)NC1c1ccc(O)c(OC)c1 (stereo not given) | 2 |
| COc1ccc(OC)c(Nc2nc(C)nc3sc4c(c23)CCCC4)c1 | i |
| CN(C)c1ccc(NC(=O)C23CC4CC(C2)CC(n2cnc(Cl)n2)(C4)C3)cc1 | i |
| CC(C)C1=CC23CCC4C(C)(C(=O)O)CCCC4(C)C2CC1C1C(=O)N(CCO)C(=O)C13 (stereo not given) | 16 |
| N=c1c(C(=O)NCc2cccnc2)cc2c(=O)n3ccccc3nc2n1C1CCCCC1 | i |
| COc1ccc(CNC(=O)C(NS(=O)(=O)c2ccc3c(c2)CCN3C(C)=O)C(C)C)cc1 (stereo not given) | i |
| CCCCn1c(CN2CCN(c3ccc(F)cc3)CC2)nc2c1c(=O)n(C)c(=O)n2C | i |
| O=C(CCCCCn1c(SCC(=O)NCc2ccccc2)nc2ccccc2c1=O)NCc1ccco1 | 4 |
| Cn1c2c(c(=O)n(C)c1=O)C(NS(=O)(=O)c1ccccc1)(C(F)(F)F)C(=O)N2 (stereo not given) | 2 |
| CCCCCCc1cc2c3c(c(=O)oc2cc1OCC(=O)OC)CCCC3 | i |
| CCOC(=O)c1cc2c(=O)n3ccccc3nc2n(CC(C)C)c1=NC(=O)c1c(F)cccc1F | i |

O=C1CCCCC1(C(=O)c1ccc([N+](=O)[O-])cc1)c1ccccn1 (stereo not given)
  FPR: i
CCOC(=O)NC(Nc1sc2c(c1C(N)=O)CCC2)(C(F)(F)F)C(F)(F)F
  FPR: i
CCCc1c(C(=O)OCC)[nH]c2c1C(=O)CC(c1ccccc1)C2 (stereo not given)
  FPR: 3
CC1CCCCC1NC(=O)CN1C(=O)COc2ccc(S(=O)(=O)N3CCCC3)cc21 (stereo not given)
  FPR: i
CCOc1ccccc1C1C(C(=O)OC)=C(N)OC2=C1C(=O)CC(C)(C)C2 (stereo not given)
  FPR: i
COc1ccc(OC)c(Nc2c3c(nc4ccc(Cl)cc24)CCCC3)c1
  FPR: i
Cc1ccc(Cl)cc1N1CCN(C(=O)c2cn(C3CCCC3)c(=O)c3c2c2ccccc2n3C)CC1
  FPR: i
CC12CCC(C(=O)Nc3nccs3)(CC1=O)C2(C)C (stereo not given)
  FPR: i
COc1cc(C2NC(=O)NC(C)=C2C(=O)OC2CCCCCC2)cc(Br)c1O (stereo not given)
  FPR: i
COc1cc(C2C(C(=O)OC3CCCCCC3)=C(C)NC3=C2C(=O)CC(C)(C)C3)cc(OC)c1OC (stereo not given)
  FPR: i

COC(=O)C1=C(C)NC(=O)NC1c1cc(C(C)(C)C)c(O)c(C(C)(C)C)c1 (stereo not given)
  FPR: i
CCOC(=O)C1=C(C)NC2=C(C(=O)C(C(=O)OC)C(C)C2)C1c1ccccc1OC(C)C (stereo not given)
  FPR: 10
CCCOc1ccc(C2NC(=O)NC(C)=C2C(=O)OCC2CCCCC2)cc1 (stereo not given)
  FPR: i
Cc1cc(C)cc(Oc2c(C(F)(F)F)oc3c(CN(C)C)c(O)ccc3c2=O)c1
  FPR: i
Cc1ccc(S(=O)(=O)N(Cc2cccc(Br)c2)CC2CCC(C(=O)NO)CC2)cc1 (stereo not given)
  FPR: 9
CCOc1ccc2c(c1)C(C)CC(C)(C)N2C(=O)Nc1cccc(Cl)c1 (stereo not given)
  FPR: i
CCCCNC(=O)C1CCN(S(=O)(=O)N2CCC(C)CC2)CC1
  FPR: i
COC(=O)C1C(=O)C2=C(CC1C)NC(C)=C(C(=O)OC1CCCCC1)C2c1ccc(OC)cc1OC (stereo not given)
  FPR: 0
CCOC(=O)c1c(NC(=O)C2C3CCC(C3)C2C(=O)O)sc(C)c1-c1ccc(C)c(C)c1 (stereo not given)
  FPR: 64
CC(C)C(N)C(=O)NC(C(=O)O)C(C)C (stereo not given)
  FPR: i

COc1cc(-c2ncnn2-c2sc3c(c2C#N)CCCC3)cc(OC)c1OC
  FPR: i
CCN(CC)CCCNC(=O)c1cn(CC(C)C)c(=O)c2c1c1ccccc1n2C
  FPR: 1
CCOC(=O)C(NC(=O)c1cccc(Cl)c1)(Nc1sc2c(c1C(N)=O)CCC2)C(F)(F)F (stereo not given)
  FPR: 51
COc1ccc(NC(=O)CSc2c3c(nc4ccccc24)CCCC3)cc1Cl
  FPR: 8
CCOC(=O)C(NC(=O)c1ccc(F)cc1)(Nc1sc2c(c1C(N)=O)CCC2)C(F)(F)F (stereo not given)
  FPR: 43
Cc1sc(NC(=O)C2C3CCC(C3)C2C(=O)O)c(C(N)=O)c1-c1ccc(C(C)(C)C)cc1 (stereo not given)
  FPR: 82*
CC(=O)N1CCc2cc(S(=O)(=O)NC(C(=O)Nc3nccs3)C(C)C)ccc21 (stereo not given)
  FPR: i
CCCc1cc(=O)[nH]c(SCC(=O)Nc2ccc(C(=O)OC)cc2)n1
  FPR: 30

Compound activity from PubChem.
